Mtb growth = M. tuberculosis H37Rv growth inhibitors, H37Rv strain (AID 1626) | M. tuberculosis H37Rv growth inhibition; higher % means a stronger effect | one-dose inhibition, % at 10 µM; IC50 in µM for titrated hits | actives 0.95% (n = 220,000);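 active = confirmed in a dose series; inconclusive = inhibition above 80% but not taken into the dose series; inactive = below 80% or under 30% at every dose of the series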;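 note: bacteria incubated seven days before Alamar blue readout; 0% = bacteria only wells and 100% = bacteria with antibiotic wells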
YopH PTP inh = blocks Yersinia enterocolitica YopH tyrosine phosphatase; AID 898; actives 0.16% (n = 140,000); inhibition, %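 (about 10 µM by stock and volumes)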; fluorescence Ex485/Em525;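 active = inhibition of 50% or more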;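 note: controls were vehicle for no effect and minimum signal wells for full effect; inactives centre near -20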
RecA intein inh = inhibitors of M. tuberculosis RecA intein splicing | inhibition, %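 (about 9 µM by stock and volumes)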 | cell-free RecA intein splicing, fluorescence | AID 2221 | actives 0.75% (n = 290,000); in the data active = inhibition above about 30%; inconclusive = no clear call, values can overlap the other calls;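 note: 0% = vehicle wells and 100% = reference inhibitor control wells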
Target sequence (P9WHJ3 whole entry, looked up): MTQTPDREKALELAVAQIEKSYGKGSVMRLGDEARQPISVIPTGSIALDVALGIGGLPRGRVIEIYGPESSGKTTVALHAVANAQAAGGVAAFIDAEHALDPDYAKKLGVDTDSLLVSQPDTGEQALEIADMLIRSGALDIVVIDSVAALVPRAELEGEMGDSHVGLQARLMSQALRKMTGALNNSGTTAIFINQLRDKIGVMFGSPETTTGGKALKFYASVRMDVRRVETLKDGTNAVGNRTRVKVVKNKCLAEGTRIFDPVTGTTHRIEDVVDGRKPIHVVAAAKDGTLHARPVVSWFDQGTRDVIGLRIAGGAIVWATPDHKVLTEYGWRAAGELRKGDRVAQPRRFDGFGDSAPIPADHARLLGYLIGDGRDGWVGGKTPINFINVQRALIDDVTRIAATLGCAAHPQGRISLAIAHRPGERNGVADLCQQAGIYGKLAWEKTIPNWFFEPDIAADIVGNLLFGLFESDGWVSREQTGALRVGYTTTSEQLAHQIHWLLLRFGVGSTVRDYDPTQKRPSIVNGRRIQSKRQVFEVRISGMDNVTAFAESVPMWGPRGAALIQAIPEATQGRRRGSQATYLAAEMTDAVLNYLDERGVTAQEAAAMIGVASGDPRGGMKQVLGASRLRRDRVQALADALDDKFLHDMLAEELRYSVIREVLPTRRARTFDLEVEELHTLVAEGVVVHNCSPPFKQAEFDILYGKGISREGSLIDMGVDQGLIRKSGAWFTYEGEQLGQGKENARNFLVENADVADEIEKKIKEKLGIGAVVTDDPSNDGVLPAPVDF
Mtb betalactam = beta-lactam sensitization of Mtb H37Rv; M. tuberculosis H37Rv growth with meropenem, percent inhibition; hits of this screen are not shown here; inhibition, % at 25 µM; actives 0.27% (n = 330,000);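 active = about 74% or more and at least 40 points above the plate without the antibiotic, then above 30% in a dose series; inconclusive = first-round hits that could not be retested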;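 note: growth measured after seven days incubation then overnight dye step; 0% = bacteria only wells and 100% = bacteria with antibiotic; twin plates without the antibiotic show which effects depend on it; some results filed as inactive read as strong as hits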
Arbovirus inh = blocks arbovirus infection | arbovirus infection cell-based antiviral screen | inhibition, % at 10 µM | actives 0.37% (n = 200,000) | AID 1251;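 active = inhibition from about 30%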;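 note: bluetongue infection of BSR cells; cell survival read as ATP light after 72 h; 0% = infected wells without compound and 100% = uninfected wells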
Arbovirus inh repeat = second read-out of Arbovirus inh, no call of its own (marks repeat the call); inhibition, %; measured here: 10K subset replicate screen; many hits read low in the repeat;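 first of two repeat runs on a subset; 0% = infected and 100% = uninfected wells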
Numbers without * were called inactive; ? = inconclusive; . = not tested or not shown.

SMILES	Mtb growth	YopH PTP inh	RecA intein inh	Mtb betalactam	Arbovirus inh	others
CC(C)CN(C(=O)COC(=O)CNC(=O)c1sc2ccccc2c1Cl)C1CCS(=O)(=O)C1 (stereo not given)	.	.	-7.0	-11	.
O=C1CC(C(=O)Nc2ccccc2)S/C(=N\NC(=O)c2ccccc2Cl)N1 (stereo not given)	5%	.	-0.1	9	4
Nc1cc(-c2ccc(Br)cc2)nn1Cc1ccccc1	-1%	.	6.5	.	-14
Cc1ccc(Nc2nc(N)nc(CN3CCN(Cc4ccc5c(c4)OCO5)CC3)n2)cc1	13%	1	-0.8	20	-2
CC(C)C1N(S(=O)(=O)c2ccccc2)CCN1S(=O)(=O)c1ccccc1	3%	-44	4.3	-4	2
COc1ccc(-n2cc(C(=O)Nc3cc([N+](=O)[O-])ccc3OC)c3ccccc3c2=O)cc1	0%	-15	-3.5	3	-1
Nc1ccccc1-c1nnc(SCc2ccccc2F)[nH]c1=O	7%	-8	0.2	10	-1	Arbovirus inh repeat=5
O=C(CN(Cc1ccccc1)C(=O)CNS(=O)(=O)c1ccc(F)cc1)NCc1ccco1	.	.	1.7	-6	.
NC1=NC(c2ccc(Cl)cc2)C(C(=O)c2ccccc2)N1 (stereo not given)	-3%	.	1.1	-10	.
O=C1CCC(=O)N1c1ccccc1-c1ccccc1	-14%	-35	3.5	0	-1
COc1ccc2nc(SCC(=O)Nc3ccc(S(=O)(=O)Nc4onc(C)c4C)cc3)[nH]c2c1	5%	-192	-3.9	5	4
O=S(=O)(NCc1ccccn1)c1ccccn1	.	.	-1.9	-14	.
Cc1ccccc1N1CC(C(=O)Nc2nnc(SCC(=O)Nc3nccs3)s2)CC1=O (stereo not given)	-5%	-5	2.0	0	2
O=C(NCc1cccc(Br)c1)C1CC(c2ccccc2C(F)(F)F)=NO1 (stereo not given)	7%	.	2.7	-9	.
CCCCC(NC(=O)c1ccccc1)C(=O)OCC(=O)N1c2ccccc2Sc2ccccc21 (stereo not given)	-11%	-15	8.6	1	-11
COc1ccccc1C(c1nnnn1C(C)(C)C)N1CCCc2ccccc21 (stereo not given)	.	-17	0.5	-3	-2
S=c1[nH]nc([C@@H]2C[C@H]2c2ccccc2)n1-c1ccccc1Cl	-2%	.	-2.2	2	.
O=C(c1cccc(S(=O)(=O)N2CCOCC2)c1)N1CCCc2ccccc21	3%	-24	0.0	-2	8
Cc1ccc(CCC(=O)Nc2ccccc2C(=O)O)o1	.	.	-5.6	-4	.
CN(C)c1ccc(/C=N/NC(=O)C2COc3ccccc3O2)o1 (stereo not given)	-2%	-20	6.6	0	-4

11 consecutive compounds from above:
SMILES	Mtb growth	YopH PTP inh	RecA intein inh	Mtb betalactam	Arbovirus inh	others
NC1=NC(c2ccc(Cl)cc2)C(C(=O)c2ccccc2)N1 (stereo not given)	-3%	.	1.1	-10	.
O=C1CCC(=O)N1c1ccccc1-c1ccccc1	-14%	-35	3.5	0	-1
COc1ccc2nc(SCC(=O)Nc3ccc(S(=O)(=O)Nc4onc(C)c4C)cc3)[nH]c2c1	5%	-192	-3.9	5	4
O=S(=O)(NCc1ccccn1)c1ccccn1	.	.	-1.9	-14	.
Cc1ccccc1N1CC(C(=O)Nc2nnc(SCC(=O)Nc3nccs3)s2)CC1=O (stereo not given)	-5%	-5	2.0	0	2
O=C(NCc1cccc(Br)c1)C1CC(c2ccccc2C(F)(F)F)=NO1 (stereo not given)	7%	.	2.7	-9	.
CCCCC(NC(=O)c1ccccc1)C(=O)OCC(=O)N1c2ccccc2Sc2ccccc21 (stereo not given)	-11%	-15	8.6	1	-11
COc1ccccc1C(c1nnnn1C(C)(C)C)N1CCCc2ccccc21 (stereo not given)	.	-17	0.5	-3	-2
S=c1[nH]nc([C@@H]2C[C@H]2c2ccccc2)n1-c1ccccc1Cl	-2%	.	-2.2	2	.
O=C(c1cccc(S(=O)(=O)N2CCOCC2)c1)N1CCCc2ccccc21	3%	-24	0.0	-2	8
Cc1ccc(CCC(=O)Nc2ccccc2C(=O)O)o1	.	.	-5.6	-4	.

(next part)
SMILES	Mtb growth	YopH PTP inh	RecA intein inh	Mtb betalactam	Arbovirus inh	others
Cc1cccc(C(=O)NCC(=O)OCc2cc(=O)n3ccsc3n2)c1	.	.	-0.7	-3	.
Cc1n[nH]c(C)c1S(=O)(=O)N1CCOCC1	-9%	-8	-0.4	1	-1
COc1ccc(C)cc1NC(=S)NN1CCN(C)CC1	5%	.	-0.4	1	4
Cc1ccc(NC(=S)NC2CC3CCC(C2)N3Cc2ccco2)c(C)c1 (stereo not given)	1%	-29	2.4	3	15
O=C(Cc1ccc(Cl)cc1)NC1CC1	0%	.	-1.6	2	10
C/C(NCc1ccccc1)=C(\C#N)C(=O)NCc1ccccc1	14%	14	0.8	4	4
N#CCCN(C(=O)COC(=O)c1ccc(CNS(=O)(=O)c2ccc(F)c(Cl)c2)cc1)c1ccc(F)cc1	13%	-20	4.2	18	16
Cc1cccc(-n2nc3c(c2NC(=O)c2ccco2)CS(=O)C3)c1C (stereo not given)	-7%	.	3.2	-1	3
O=C(N/N=C/c1c(Cl)nc2ccccn2c1=O)c1cccnc1	-32%	.	4.0	-3	.
Cc1cc(/C=C2\C(=O)NN(c3ccccc3)C2=O)c(C)n1-c1ccccc1O	2%	.	-0.5	-2	.
NC(=O)Cn1cc(C(=O)C(=O)N2CCOCC2)c2ccccc21	.	.	-2.3	-2	.
CCN1CCN(C(c2ccc(C(F)(F)F)cc2)c2ccc3cccnc3c2O)CC1 (stereo not given)	.	.	21	59	.
CC[C@H](C)[C@H](NC(N)=O)C(=O)Nc1ccc2c(c1)OCO2	2%	.	0.4	4	3
C=CCNC(=O)c1c(N)n(Cc2ccco2)c2nc3ccccc3nc12	-2%	-2	-232	14	13
COc1ccc(S(=O)(=O)Nc2ccc(F)c(F)c2)cc1Cl	-4%	-32	1.7	1	-5
C[C@@H]1NC(=O)c2cc([N+](=O)[O-])cc(I)c2OCC[C@@H](C(=O)NC(CC(=O)O)C(N)=O)NC(=O)[C@H](CC(N)=O)NC1=O (stereo not given in full)	-7%	-15	.	-3	-2
CS(=O)(=O)c1ccc2nc(NC(=O)c3cccc([N+](=O)[O-])c3)sc2c1	.	.	-1.4	-2	.
O=C(O)CCCCCNS(=O)(=O)c1cccc2c1C(=O)c1ccccc1C2=O	-10%	-12	27	-1	-4
O=C1C2CCCN2C(c2cccs2)N1c1ccccn1 (stereo not given)	-3%	-21	-0.9	-10	1
Cc1ccc(S(=O)(=O)N2CCN(C(=O)N3CCOCC3)CC2)cc1C	.	.	-7.9	-4	.
C/C=C/C(=O)OCC(=O)Nc1cc([N+](=O)[O-])ccc1Cl	-6%	-28	-1.5	7	4
COc1ccc(C2(C)NC(=O)N(CC(=O)NCCC3=CCCCC3)C2=O)cc1OC (stereo not given)	5%	-9	0.9	9	0
O=C(O)C1C2C=CC3(O2)C1C(=O)N1c2ccccc2COC13 (stereo not given)	0%	34	-1.7	11	6
COc1cc(/C=C2\C(=N)N3N=C(S(C)(=O)=O)SC3=NC2=O)ccc1OS(=O)(=O)c1ccc(C)cc1	.	.	16	8	.
Cc1ccccc1C(=O)NNC(=S)NC(=O)c1cccnc1	61%	-10	1.3	93	-3
Cc1ccc(Cl)cc1NC(=O)Cn1nc(-c2cccs2)ccc1=O	.	.	-0.9	15	.
CCOc1cc(C(F)(F)F)cnc1/C(N)=N/O	-21%	.	-2.8	-3	.
CC(C)CC(=O)Nc1ccc2c(c1)oc1ccccc12	-10%	-9	0.8	-11	-1
CCOc1ccc(N2CC(C(=O)Nc3cccc(S(=O)(=O)NC4=NCCC4)c3)CC2=O)cc1 (stereo not given)	1%	.	1.4	-2	.
CCCCNC(=O)c1onc(CSc2cccc(OC)c2)c1C(=O)O	4%	-38	2.5	-10	6
COc1ccc(-c2nc3cnccn3c2Nc2ccc3c(c2)OCO3)cc1	13%	-17	4.0	6	-14	Arbovirus inh repeat=-11
O=C(CCCCCn1c(=S)[nH]c2ccc(N3CCOCC3)cc2c1=O)NCc1ccc2c(c1)OCO2	5%	.	-12	-2	-21
Cc1cccc(CS(=O)(=O)Cc2ccc(C(=O)NC(C)c3ccccc3)o2)c1 (stereo not given)	.	.	1.4	0	.
O=C(Nc1ccc2c(c1)OCO2)C1CCN(c2ccc(S(=O)(=O)N3CCOCC3)cc2)CC1	4%	-27	25	-1	-20
COc1cc(C(=O)NCc2ccc(F)cc2)cc(Cl)c1OC	-2%	-20	2.2	-5	1
CCc1cc2c(SCC(=O)NC3CCS(=O)(=O)C3)ncnc2s1 (stereo not given)	3%	.	0.3	-12	10
CCCCN=C1NN=C(c2cccc([N+](=O)[O-])c2)CS1	4%	.	1.0	6	-10
CC(C)CNC(=O)c1cccc(NC(=O)CSc2ccccc2)c1	0%	-26	0.8	-4	-10
CCOC(=O)COc1ccc(Cl)cc1C1NC(=O)NC(C)=C1C(C)=O (stereo not given)	-3%	-14	3.3	-14	0
CCCOc1ccc(C(=O)OCC(=O)NCCc2ccc(OCC)c(OCC)c2)cc1OC	.	.	2.4	-2	.
CCn1cc(-c2cc(C(=O)O)on2)c(C)n1	1%	.	-3.8	-7	3
CC(=O)c1cc(C(=O)N2CCCC(CCC(=O)N(C)CCc3ccccn3)C2)cs1 (stereo not given)	2%	.	1.1	-10	13
Cc1ccc(C(NC(=O)N2CC(C)OC(C)C2)C(Cl)Cl)cc1F (stereo not given)	-2%	-59	-4.7	0	-1
CCOC(=O)C1=C(C)N=c2s/c(=C\c3cccn3C)c(=O)n2C1c1cccc(OC)c1OC (stereo not given)	-3%	-20	-0.7	-23	-1
Cc1ccc(/C=C2\C(=O)NC(=O)N(CCc3ccc(F)cc3)C2=O)s1	6%	.	.	37	-8
O=C(Nc1ccc(N2CCOCC2)cc1)C1CC(O)CN1S(=O)(=O)c1ccc(Cl)cc1 (stereo not given)	1%	.	3.4	0	1
CCOc1nc(SCCOc2ccccc2)nc(N(C)C)n1	-12%	-21	8.5	-7	13
COCCN1CCN(c2c(C)c(C)nc3cc(-c4cccc(OC)c4)nn23)CC1	.	.	0.1	-6	.
O=C(Nc1nnc(-c2ccc(F)cc2)o1)c1ccco1	?	.	3.5	93	0	Arbovirus inh repeat=-7
CCCCCn1ccc(=O)c2c(C(F)(F)F)nccc21	-2%	-10	-0.6	-4	14

Following part:
SMILES	Mtb growth	YopH PTP inh	RecA intein inh	Mtb betalactam	Arbovirus inh	others
O=C(Nc1nnc(-c2ccccc2)o1)NC1CCCCC1	73%	-28	-0.1	?	-11
COc1cccc(N2C(=O)C(CC(=O)Nc3ccc(F)cc3)N(C3CCCCC3)C2=O)c1 (stereo not given)	-3%	-20	0.2	-2	-3
CC1CC(=O)c2cnc(NCC3CCCO3)nc2C1 (stereo not given)	-6%	-16	-4.5	1	8
O=C(NCC(c1cccs1)N1CCOCC1)c1cn(-c2ccccc2)nc1-c1ccc(F)cc1 (stereo not given)	.	.	6.9	3	.
COc1cccc(C(=O)/C=C/Nc2ccc(S(=O)(=O)Nc3ccc(C(C)=O)cc3)cc2)c1	12%	17	1.4	-12	1
CC(=O)c1c(C)[nH]c(C(=O)OCC(=O)Nc2ccc(Cl)cc2[N+](=O)[O-])c1C	3%	-26	-1.6	-3	5
COc1ccc2[nH]c(=O)c(CNc3ccccc3C)cc2c1	7%	.	-7.9	4	.
CN(C)c1ncnc2c1ncn2C1OC(CO)C(O)C1O (stereo not given)	-8%	7	-2.4	3	-22
Cc1ccc(CCNC(=O)C2CCN(C(=O)c3sccc3-n3cccc3)CC2)cc1	-9%	-30	-0.2	-19	0
CSc1ccccc1C(=O)NC1CC2CCC1C2 (stereo not given)	1%	-1	4.2	-1	1
CCCn1c(-c2ccc(F)cc2)n[nH]c1=S	-5%	-34	0.2	-14	-3
Oc1[nH]c2ccccc2c1N=Nc1nc2ccccc2s1	.	-16	-2.3	65	-27
Cc1ccc(N(Cc2ccccc2)C(=O)c2cc(S(=O)(=O)N3CCOCC3)ccc2C)cc1	.	.	5.6	-2	.
CC(=O)/C(N=Nc1ccc(SC(F)F)cc1)=C(\C)O	11%	.	5.3	3	-3
COc1cc(OC)c(C(=O)NCC2CCCO2)cc1OC (stereo not given)	-10%	.	0.2	-12	-3
Cc1csc2nc(O)c(C(=O)NC3CCCCCC3)c(=O)n12	.	.	13	-4	.
CCOC(=O)c1ccc(N2C(=O)CC(NC3CCN(C(=O)c4cccc(Cl)c4)CC3)C2=O)cc1 (stereo not given)	34%	-39	1.3	-3	2
COc1ccccc1OCC(=O)OC/C(O)=C(\C#N)c1nc2ccccc2[nH]1	14%	-23	3.9	93	-31
COc1ccc(NC(=O)Nc2ccc3nonc3c2)cc1	-2%	.	-0.5	1	.

Source: PubChem BioAssay (several laboratories)

Some of the compounds tested. The share of hits here may be higher or lower than overall.
